StopGo FLuc – lowers the firefly signal of an FMDV 2A StopGo reporter. Potency, µM (highest dose often 57.5 µM), without a hit: at the highest dose signal change, negative = less light. AID 1745856. HEK cells with a luciferase reporter of 2A StopGo recoding. actives 0.23% (n = 120,000); active = well fitted falling curve with a large enough effect; inconclusive = small, poorly fitted or top-dose-only effect; inactive = no such curve, though single readings can be large or run the other way; also: nearly all actives have a fitted effect of over 60% in size; overnight with compound
2A Renilla – FMDV 2A StopGo reporter, Renilla signal; HEK cells with a luciferase reporter of 2A StopGo recoding; Potency, µM (doses to about 57.5 µM), for the others: top-dose signal change, negative = less light; actives 0.32% (n = 120,000); AID 1745857; active means well fitted falling curve with a large enough effect; inconclusive means small, poorly fitted or top-dose-only effect; inactive means no such curve, though single readings can be large or run the other way; also: nearly all actives have a fitted effect of over 55% in size; overnight with compound
Numbers without * were called inactive; ? = inconclusive; [ ] = another dose, or the depositor's remark. % is scaled to controls: 0 for no effect and ±100 for the full control effect; potency is read from the fitted curve at half-maximal effect. A portion of the library; count on the stated rates, not on these rows.

entry | SMILES | StopGo FLuc | 2A Renilla
1 | CCCCN(C(=O)c1cccc(S(=O)(=O)N2CCCCC2)c1)C1CCS(=O)(=O)C1 (stereo not given) | 22.3% | 9.0%
2 | COc1cccc(N2C(=O)C(CC(=O)Nc3ccc(F)cc3)N(CCC3=CCCCC3)C2=O)c1 (stereo not given) | -23.2% | 115.4%[activator]
3 | COc1ccc(NC(=O)c2cc3c(=O)n(Cc4ccco4)ccc3nc2C)c(OC)c1 | -16.3% | 3.6%
4 | COc1ccc2cc(C(=O)NCC(=O)Nc3cccc(Cl)c3C)c(C)nc2c1 | 0.3% | -2.7%
5 | Cc1ccccc1OCCSc1nc2ccccc2n1CC(O)CO (stereo not given) | 5.9% | 3.6%
6 | COc1ccc2ccc(OC(=O)c3ccccc3)cc2c1 | 0.0% | 1.1%
7 | Cn1nc(C(=O)Nc2nc3c(s2)CN(C(=O)OC(C)(C)C)CC3)c2ccccc2c1=O | 38.0%[activator] | 27.8%
8 | CCCCOc1ccc(C(=O)Nc2ccc3c(c2)CCCN3S(=O)(=O)c2ccc(C)cc2)cc1 | ? | ?
9 | Cc1ccn2c(F)c(C(F)(F)F)nc2c1 | 4.7% | 3.2%
10 | COC(=O)C1=C(C)NC(C)=C(C(=O)OC(C)(C)CN(C)CCC(c2ccccc2)c2ccccc2)C1c1cccc([N+](=O)[O-])c1 (stereo not given) | -16.2%[11.5 µM] | 2.2%
11 | Cc1cccc(N2C(=O)C(CC(=O)Nc3ccc(Cl)cc3)N(Cc3ccco3)C2=O)c1 (stereo not given) | -20.6% | 199.2%[activator]
12 | COc1cccc(CN2C(=O)N(c3ccc(C)cc3)C(=O)C2CC(=O)Nc2cc(OC)cc(OC)c2)c1 (stereo not given) | -0.1% | 33.0%[activator]
13 | CC(C)CC(=O)NCc1nc2cccnc2n1Cc1ccccc1 | -11.1% | -3.1%
14 | Cc1ccc(C)c(S(=O)(=O)Nc2cccc(S(=O)(=O)C3CCCC3)c2)c1 | -5.3% | 99.4%[activator]
15 | O=S(=O)(c1ccccc1)c1nc(-c2ccc(Cl)cc2Cl)oc1N1CCCCC1 | -8.6% | -2.4%
16 | CCOC(=O)COc1ccc2c(=O)c(-c3ccc(OC)c(OC)c3)c(C(F)(F)F)oc2c1 | 8.3% | -9.0%
17 | Cn1nc(C(=O)NCc2cccc(Cl)c2)c2c1-c1ccccc1SC2 | -12.6% | 61.5%[activator]
18 | COc1ccc(C(=O)OC2CCCCC2=O)cc1OC (stereo not given) | 6.4% | -4.1%
19 | CN(Cc1nc2ccccc2s1)C(=O)c1cccc(S(=O)(=O)Nc2ccccc2F)c1 | 15.9% | 65.0%[activator]
20 | CC(=O)Nc1ccc(C(=O)Nc2cnc3ccccc3c2)cc1 | 126.2%[activator] | -0.6%
21 | CCOC(=O)N/N=C/c1ccccc1OCC(=O)O | 8.4% | -6.4%
22 | CC(=O)c1cccc(NC(=O)C2CCN(S(=O)(=O)c3ccc4[nH]c(=O)ccc4c3)CC2)c1 | 10.3% | 8.3%
23 | Cc1cc(NC(=O)COC(=O)C2(c3ccc(Cl)cc3)CC2)no1 | -4.5% | -10.4%
24 | COC(=O)CC(NC(=O)c1cc(C)nc2c1cnn2C(C)C)c1ccccc1Cl (stereo not given) | -12.6% | -7.7%
25 | COc1ccc(Oc2c(C)oc3cc(OCC(=O)NCc4ccccc4)ccc3c2=O)cc1 | -0.2% | 3.9%

Whole records from above:
Record of Cc1ccn2c(F)c(C(F)(F)F)nc2c1 = StopGo FLuc: 4.7%; 2A Renilla: 3.2%
Record of COc1ccc(NC(=O)c2cc3c(=O)n(Cc4ccco4)ccc3nc2C)c(OC)c1 = StopGo FLuc: -16.3%; 2A Renilla: 3.6%

More records follow:
entry | SMILES | StopGo FLuc | 2A Renilla
26 | CCS(=O)(=O)N1CCC(C(=O)N2CCN(c3cc(Cl)ccc3C)CC2)CC1 | -19.2% | -25.1%
27 | O=C(CN1CCC2(CC1)OCCO2)Nc1cc(Cl)ccc1Cl | 100.6%[activator] | 11.7%
28 | COc1ccc(OC)c(-c2csc(-c3c(N)c(C(=O)c4ccccc4)n4ccccc34)n2)c1 | -15.5% | -10.5%
29 | N=C(N)c1ncccn1 | 13.4% | 9.5%
30 | CCN(CC)C(=O)c1sc2c(c1C)c(=O)n(-c1ccccc1)c(=O)n2CC(=O)Nc1ccc(C)cc1C | 39.9%[activator] | 8.4%
31 | CCOc1ccc(S(=O)(=O)Nc2nc3ccccc3nc2Nc2ccc(OC)cc2)cc1 | 5.9% | 27.8%
32 | Cc1ccc(S(=O)(=O)N2CCN(CCS(=O)(=O)CCC(N)=O)CC2)cc1C | 4.4% | -5.4%
33 | Cc1ccc(NC(=O)CN(C)C(=O)C(C)N2CCCC(C(F)(F)F)C2)cc1 (stereo not given) | -1.9% | -1.4%
34 | Fc1c(F)c(C(F)(F)F)c(F)c(F)c1N/N=C/c1ccc(Br)cc1 | 24.9% | -20.0%
35 | Cc1oc(-c2nc(C#N)c(NCc3cccnc3)o2)cc1S(=O)(=O)N1CCCC1 | 1.7% | 29.3%
36 | CC(C)(C)NC(=O)c1ccc(NC(=O)C2(C)CC2(Cl)Cl)cc1 (stereo not given) | 0.0% | -2.7%
37 | COC(=O)c1c(C)[nH]c(C(=O)C(C)Cl)c1C (stereo not given) | 36.3%[activator] | 38.8%[activator]
38 | Cc1ccc(S(=O)(=O)N(C)Cc2nc(-c3ccccc3)oc2C)cc1 | ? | ?
39 | COc1cccc(OC(=O)CSc2nnc(-c3ccc4c(c3)OCO4)o2)c1 | ? | 55.3%[activator]
40 | O=C(CSc1ccc(Cl)cc1)Nc1ccccc1-c1nc(-c2ccccn2)no1 | 168.4%[activator] | -2.6%
41 | Cc1ccc(NC(=O)CN2C(=O)NC(Cc3c[nH]c4ccccc34)C2=O)cc1F (stereo not given) | -9.7% | -3.2%
42 | CCCOc1ccccc1C(=O)Nc1nc2c(s1)CCCC2 | -0.9% | -31.5%
43 | COc1ccccc1-c1noc(CCCC(=O)NCc2ccco2)n1 | -23.1% | -11.2%
44 | CC[N+](CC)(CC)CCOc1cccc(OCC[N+](CC)(CC)CC)c1OCC[N+](CC)(CC)CC | -5.5%[11.5 µM] | 5.6%
45 | COc1ccc(S(=O)(=O)NCC(c2ccco2)S(=O)(=O)c2ccc(C)cc2)cc1C (stereo not given) | -14.7% | 294.1%[activator]
46 | C[C@H](O)[C@@H]1CN2CCc3ccc(N4CCOCC4)cc3[C@@H]2C[C@@H]1N(C)C(=O)c1ccco1 | -7.7% | -6.0%
47 | c1ccc(-c2cc(-c3nnc(-c4ccccc4)c(-c4ccccc4)n3)[nH]n2)cc1 | 16.8% | -4.1%
48 | Nc1cc(C(F)(F)F)ccc1S | -15.9%[11.5 µM] | -15.5%
49 | O=S(=O)(c1ccc2nc(Nc3ccc(F)cc3)ccc2c1)N1CCCC1 | -1.0% | 39.2%[activator]
50 | Cc1ccc2c(CSc3nnnn3-c3ccccc3)cc(=O)oc2c1 | 109.2%[activator] | 0.0%

The last four records of the section before come first, to join the parts.
entry | SMILES | StopGo FLuc | 2A Renilla
47 | c1ccc(-c2cc(-c3nnc(-c4ccccc4)c(-c4ccccc4)n3)[nH]n2)cc1 | 16.8% | -4.1%
48 | Nc1cc(C(F)(F)F)ccc1S | -15.9%[11.5 µM] | -15.5%
49 | O=S(=O)(c1ccc2nc(Nc3ccc(F)cc3)ccc2c1)N1CCCC1 | -1.0% | 39.2%[activator]
50 | Cc1ccc2c(CSc3nnnn3-c3ccccc3)cc(=O)oc2c1 | 109.2%[activator] | 0.0%
51 | Cc1ccc(C)c(Cn2c(CN3CCN(Cc4ccccc4)CC3)nc3c2c(=O)[nH]c(=O)n3C)c1 | -3.4% | -15.4%
52 | Cc1cc(Cl)ccc1NC(=O)CS(=O)(=O)c1cccc2nsnc12 | 1.7% | 56.7%[activator]
53 | Cc1ccc(S(=O)(=O)c2cn(CC(=O)Nc3ccc4c(c3)OCO4)c3ccc(F)cc3c2=O)cc1 | 3.7% | 39.1%[activator]
54 | O=C(CC1N=C2c3ccccc3N=C(SCC(=O)Nc3ccccc3F)N2C1=O)NCc1cccs1 (stereo not given) | 47.0%[activator] | 3.2%
55 | FC(F)(F)c1cccc(N2CCN(Cc3nnc(-c4ccccc4)o3)CC2)c1 | -0.3% | -10.6%
56 | Cc1cc(F)ccc1NC(=O)c1csc2c1CCC(C)C2 (stereo not given) | 212.2%[activator] | 39.1%
57 | COc1ccc(N2CCN(C(=O)c3nn(C)c4c3CSc3ccccc3-4)CC2)cc1 | -15.6% | -6.6%
58 | Cc1c(-c2ccccc2)oc2c(C(=O)OCC(=O)N3CCNC3=O)cccc2c1=O | 23.1% | 10.7%
59 | C=CCn1c(C)c(C(=O)OCC)c2cc(O)ccc21 | 22.1% | 5.9%
60 | Cc1ccc(CNC(=O)CCSCc2cnn(-c3ccccc3)c2-n2cccc2)cc1 | -8.2% | 14.9%
61 | CCCn1c(=O)c2sccc2n2c(CCCC(=O)Nc3ccccc3OCC)nnc12 | -0.3% | 9.6%
62 | Cc1ccc(-c2cnc(CCC(=O)Nc3ccc(OC(F)F)cc3)o2)cc1 | 25.8% | 4.8%
63 | Cc1noc(C)c1S(=O)(=O)NCCc1csc2nc(-c3ccc(F)cc3)nn12 | -12.9% | 112.0%[activator]
64 | COc1ccc(-c2cc3nc(C)c(CCC(=O)N4CCN(c5ccc(F)cc5)CC4)c(C)n3n2)c(OC)c1 | -22.3% | -8.0%
65 | COc1ccc(-c2cc3nc(C)c(CCC(=O)NCc4ccccc4Cl)c(C)n3n2)c(OC)c1 | 40.7%[activator] | -2.6%
66 | O=S(=O)(Nc1ccc2nc(-c3ccc(F)cc3)oc2c1)c1ccccc1 | 34.4%[activator] | 67.7%[activator]
67 | Cc1ccc(-c2cc(NC(=O)C(C)Oc3ccccc3Cl)on2)cc1 (stereo not given) | 77.8%[activator] | -2.8%
68 | O=C(CSc1ccc2nnc(CCNS(=O)(=O)c3ccccc3)n2n1)Nc1ccccc1C(F)(F)F | -13.3% | 1.7%
69 | Cc1ccc2nc3sc(C(=O)NCCCN(C)c4ccccc4)cc3cc2c1 | 161.6%[activator] | 3.2%
70 | Cc1cc(C)cc(OCCSc2nc3ccc(NC(=O)c4cccs4)cc3s2)c1 | 4.3% | -3.0%
71 | CCOc1ccc(CCNC(=O)CCN2N=C(c3ccc(OC)cc3)CCC2=O)cc1OCC | -20.1% | -17.0%
72 | CCOc1ccc(CCNc2ncnc3onc(-c4ccc(Cl)cc4)c23)cc1 | -10.2% | -10.9%
73 | Cc1ccc(S(=O)(=O)NCCc2cn3ccsc3n2)c(C)c1 | 14.3% | 385.3%[activator]
74 | Cc1ncc(-c2ccc(C)c(S(=O)(=O)Nc3ccc(Cl)cc3F)c2)o1 | 20.4% | 68.9%[activator]
75 | CC(=O)Nc1cccc(NC(=O)c2cc(C(C)C)nc3ccccc23)c1 | 23.6% | 25.2%
76 | O=C(CSc1ccc(-c2cccs2)nn1)Nc1ccccc1C(F)(F)F | 10.7% | 28.1%
77 | O=C(NCCc1ccc(Cl)cc1)c1nnc(Cc2ccc(F)cc2)o1 | -14.2% | -7.0%
78 | COc1ccc(NC(=O)Nc2nnc(N3CCCC(C)C3)s2)cc1 (stereo not given) | -0.7% | -7.2%
79 | Cc1ccc(C)c(-n2nnnc2Sc2nnnn2-c2ccccc2)c1 | ? | ?
80 | COC(=O)c1c(NC(=O)/C=C/c2ccc(OC)cc2)sc2c1CCC2 | -18.2% | -6.7%
81 | O=C1CCCc2cc(S(=O)(=O)NCC3CCC(C(=O)NCc4ccc(F)cc4)CC3)ccc2N1 (stereo not given) | -0.5% | -12.1%
82 | CCOc1ccc(N2CC(c3nc4ccc(C)cc4[nH]3)CC2=O)cc1 (stereo not given) | 10.2% | 16.4%
83 | CN(C)S(=O)(=O)n1cc(/C=C(\NC(=O)c2ccccc2Cl)C(=O)NCCCn2ccnc2)c2ccccc21 | 20.7% | 249.4%[activator]
84 | CCCNS(=O)(=O)c1cccc(C(=O)Nc2ccc(N3CCCCC3)c3ccncc23)c1 | -14.9% | 66.3%[activator]
85 | O=C(CC1C=CCC1)NC1CCCc2ccccc21 (stereo not given) | 30.7%[activator] | 74.9%[activator]
86 | CCCc1cc(=O)oc2cc(OCC(=O)NCc3ccccn3)ccc12 | 6.7% | 3.6%
87 | CCCCN1C(=O)C(CC(=O)Nc2ccc(F)c(F)c2)n2c1nc1ccccc12 (stereo not given) | -8.2% | 13.1%
88 | CC(C)(C)C1CCC(CC2=C(O)c3ccccc3C(=O)C2=O)CC1 (stereo not given) | 8.3%[11.5 µM] | -2.1%
89 | Cc1ccc(NC(=O)C2CC(=O)N(c3ccc(OC(C)C)cc3)C2)cc1 (stereo not given) | 16.9% | 21.6%
90 | CC(=O)c1ccc(OCCCC(=O)Nc2ccc3c(C)cc(=O)oc3c2)cc1 | 13.8% | -7.4%
91 | CCOc1ccccc1NC(=O)CSc1nc2c(=O)[nH]cnc2n1-c1ccc(C)cc1 | 36.4%[activator] | 44.5%[activator]
92 | O=S(=O)(NCc1ccc(F)cc1)c1ccc(-c2cnc(C3CC3)o2)cc1 | ? | 51.6%[activator]
93 | CCCCCCCn1c(SCC(=O)O)nc2c1c(=O)[nH]c(=O)n2C | 6.2% | -1.4%
94 | Cc1ccc(NC(=O)C2CCN(S(=O)(=O)c3cccc4nsnc34)CC2)cc1F | 1.6% | 12.1%
95 | COc1ccc2cc(CN(C)C(=O)C3CCN(S(=O)(=O)c4ccccc4F)CC3)ccc2c1 | ? | ?
96 | Cc1cc(C)cc(OC(C)C(=O)Nc2nonc2-c2ccc(Br)cc2)c1 (stereo not given) | -4.9% | -13.7%

Screening results as filed in PubChem.
